Source: PubChem BioAssay (Broad Institute)
Ecoli rRNA inh = inhibits bacterial ribosomal RNA function over humanized ribosomes. E. coli WT GFP vs humanized-ribosome RFP mutants, fluorescence, 24 h; stronger effect = lower value; DMSO median 0, no signal -100. GFP signal change (wild-type ribosome), % (test concentration not listed). 1.6% of 350,000 active;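 active = significant combined selectivity score with lowered wild-type GFP, culture density cut under 30%, mutant RFP and density less affected; inactive = any of these conditions unmet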; note: one replicate is shown; some compounds called inactive have numbers as strong as hits
MLL AF4-AF9 inh = MLL-AF4/AF9 protein interaction inhibition; P42568; AlphaScreen, biotin-AF4 peptide binding to FLAG-AF9; inhibition, % at 10 µM; 0.47% of 350,000 active;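 active = every replicate reaching a set inhibition limit, whatever the replicate mean, cut at about 25% in these data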;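 note: 0% = plate neutral control median and 100% = total signal loss; the record names both 10 and 1 µM as test concentration; the first replicate is given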
Target sequence (P42568 whole entry, looked up): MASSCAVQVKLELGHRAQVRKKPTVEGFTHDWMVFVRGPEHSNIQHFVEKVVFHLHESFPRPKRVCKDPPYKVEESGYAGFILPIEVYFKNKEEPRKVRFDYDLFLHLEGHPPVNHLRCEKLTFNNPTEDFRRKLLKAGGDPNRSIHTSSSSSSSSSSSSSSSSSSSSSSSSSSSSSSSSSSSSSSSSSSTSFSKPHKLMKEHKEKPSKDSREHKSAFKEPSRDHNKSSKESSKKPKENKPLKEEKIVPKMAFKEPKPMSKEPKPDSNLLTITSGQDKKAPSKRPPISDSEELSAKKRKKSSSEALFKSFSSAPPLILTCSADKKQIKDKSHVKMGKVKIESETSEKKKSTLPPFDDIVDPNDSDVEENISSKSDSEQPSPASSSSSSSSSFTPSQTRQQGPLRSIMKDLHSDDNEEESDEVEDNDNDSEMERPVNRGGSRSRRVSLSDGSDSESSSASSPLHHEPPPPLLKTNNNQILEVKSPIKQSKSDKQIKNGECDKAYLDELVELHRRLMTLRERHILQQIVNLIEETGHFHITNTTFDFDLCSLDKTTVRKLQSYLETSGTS
Ecoli rRNA inh OD600 = also measured in Ecoli rRNA inh; calls as there; OD600 change, %; measured here: OD600 growth;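 optical density of the mix in the first replicate; 0 = DMSO median and -100 = no signal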
Ecoli rRNA inh RFP = further read-out of Ecoli rRNA inh, marked with its call; RFP signal change, %; measured here: RFP humanized mutant strains;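 first replicate; 0 = DMSO median and -100 = no signal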
* hit, by the source's call; & = joins results of further samples.

SMILES	Ecoli rRNA inh	Ecoli rRNA inh OD600	Ecoli rRNA inh RFP	MLL AF4-AF9 inh
C[C@@H]1CCCCO[C@@H](CN(C)Cc2ccc3c(c2)OCO3)[C@@H](C)CN([C@H](C)CO)C(=O)c2cc(NC(=O)CCC(F)(F)F)ccc2O1	-0.5	1.9	-4.7	-4.7
O=C(Nc1ccc(F)cc1)N[C@@H]1CC[C@@H](CC(=O)N2CCCCC2)O[C@H]1CO	2.2	11.8	-1.6	-13.1
CO[C@@H]1CN(C)C(=O)c2ccc(NC(=O)C3CCCCC3)cc2OC[C@H](C)N(C(=O)c2ccccc2)C[C@@H]1C	-4.2	-9.5	1.8	0.2
COCC#Cc1cnc2c(c1)C(=O)N([C@@H](C)CO)C[C@H](C)[C@@H](CN(C)S(=O)(=O)c1cn(C)cn1)O2	-0.2	-2.9	-0.5	-0.9
C/C=C/c1cnc2c(c1)C(=O)N([C@@H](C)CO)C[C@@H](C)[C@H](CN(C)C(=O)Nc1c(C)noc1C)O2	4.8	9.7	-2.4	-2.6
C[C@H]1CN([C@@H](C)CO)C(=O)c2cc(C#CC3(O)CCCC3)cnc2O[C@@H]1CN(C)C(=O)Cc1ccccc1	-1.4	-5.1	-1.2	-2.3
C[C@@H]1CN([C@H](C)CO)C(=O)c2cc(NC(=O)C3CC3)ccc2O[C@@H]1CN(C)Cc1ccncc1	4.4	11.8	-1.3	6.4
C[C@H]1CCCCO[C@@H](CN(C)C(=O)Nc2ccccc2)[C@@H](C)CN([C@@H](C)CO)C(=O)c2cc(NC(=O)C3CCCCC3)ccc2O1	0.0	1.0	1.9	1.3
CC(C)NC(=O)N1CCCCN2[C@H](C1)[C@H](c1ccc(C#CC3CC3)cc1)[C@@H]2CO	3.7	-6.8	-0.3	-0.8
COC(=O)c1ccc2cc(OC)cc([N+](=O)[O-])c2n1	8.2	10.0	2.8	2.2
C[C@@H]1CCCCO[C@@H](CN(C)Cc2ccncc2)[C@@H](C)CN([C@H](C)CO)C(=O)c2cc(NS(=O)(=O)c3ccccc3)ccc2O1	1.2	-1.6	-0.6	-3.4
Fc1cccc(Cc2c(-c3ccccc3)nc3ccc(Cl)cn23)c1	-6.0	-5.8	1.7	-1.7
C=CCN1[C@@H](Cc2ccccc2)COc2cc(N3CCSCC3)ccc2S1(=O)=O	-4.4	2.0	-2.0	-2.6
C[C@H](CO)N1C[C@H](C)[C@H](CN(C)C(=O)NC2CCCCC2)Oc2ncc(C#CCN(C)C)cc2C1=O	3.6	13.6	2.0	-9.2&-6.6
O=C(NC(c1ccc(Cl)cc1)c1ccsc1)C1CCN(Cc2cccc(C(F)(F)F)c2)CC1 (configuration not stated)	6.9	4.6	2.5	1.9
O=C(C[C@H]1CC[C@H]2[C@@H](COC[C@@H](O)CN2Cc2cccc(C(F)(F)F)c2)O1)NCc1ccc(Cl)cc1	-6.7	-13.4	8.8	-0.4
O=C(C[C@H]1C=C[C@@H](NC(=O)CN2CCOCC2)[C@@H](CO)O1)NCc1cccc(F)c1	-0.6	2.0	-0.2	-0.3
Cc1c(C(=O)NCc2ccc(F)cc2)sc(=O)n1Cc1ccccc1F	-6.5	-19.3	-13.0	10.4
C[C@H](CO)N1C[C@H](C)[C@@H](CN(C)C)Oc2ccc(NS(=O)(=O)c3ccc(Cl)cc3)cc2CC1=O	5.5	-2.5	1.1	-2.5
CC(C)NC(=O)Nc1ccc2c(c1)CC(=O)N([C@H](C)CO)C[C@@H](C)[C@@H](CN(C)Cc1ccc3c(c1)OCO3)O2	1.9	13.5	0.6	-0.6
CC(=O)C1=CCC(c2ccc(C)cc2)N(S(=O)(=O)c2ccc(C)cc2)C1 (configuration not stated)	5.5	-28.5	9.3	-2.3
COc1cc(CN2C[C@@H](CO)O[C@@H](n3cnc4c(N5CCN(C)CC5)ncnc43)C2)cc(OC)c1OC	16.2	14.1	2.2	-0.9
C[C@H]1CN([C@@H](C)CO)S(=O)(=O)c2ccc(/C=C/c3ccccc3)cc2O[C@H]1CN(C)Cc1cccnc1	0.2	-15.6	16.8	11.7
CC1(C(=O)Nc2ccc(Cl)cc2)Cc2c(-c3cccc(C(N)=O)c3)ccnc2O1 (configuration not stated)	-4.2	-23.9	-1.0	0.9
COc1ccc(NC(=O)c2cccc3c(-c4cccnc4)coc23)cc1	-3.5	4.4	1.4	-6.8
C[C@@H]1CN([C@H](C)CO)C(=O)c2cccc(NC(=O)NC3CCCCC3)c2O[C@@H]1CN(C)C(=O)Nc1ccc2c(c1)OCO2	1.1	-4.1	-0.9	5.8
Cc1ccc(S(=O)(=O)C[C@@H]2OC[C@H](C)N2S(=O)(=O)c2ccc(C)cc2)cc1	-3.1	-3.9	12.3	-2.6
COc1ccc(-c2nc3cc(C)ccn3c2NC2CCCCC2)cc1SC1CCCCC1	4.1	0.9	1.3	11.4&6.9
C[C@@H]1CN([C@@H](C)CO)C(=O)c2cc(NC(=O)CCC(F)(F)F)ccc2O[C@H]1CN(C)Cc1ccc(C(=O)O)cc1	9.0	15.4	-0.9	-4.7
COc1ccc(-c2cnc3c(c2)C(=O)N([C@@H](C)CO)C[C@@H](C)[C@H](CN(C)C(=O)Cc2ccncc2)O3)cc1	0.8	6.0	0.6	-2.4
CC(=O)N(C)C[C@@H]1Oc2ncc(-c3ccc(C(=O)N(C)C)cc3)cc2C(=O)N([C@H](C)CO)C[C@@H]1C	1.9	7.3	-3.9	-0.3
CCCC(=O)N1CCC1(C)C(=O)NS(=O)(=O)c1cccc(F)c1 (configuration not stated)	11.5	26.3	-0.7	-2.6
C[C@@H]1CN([C@H](C)CO)C(=O)CCCn2cc(nn2)CO[C@H]1CN(C)Cc1cccc(C(=O)O)c1	0.0	0.4	-0.8	-9.3
CN(C)C(=O)[C@@H]1[C@@H](CO)[C@@H]2Cn3c(ccc(-c4ccccc4)c3=O)[C@@H]2N1CCC(F)(F)F	3.5	0.3	-0.7	-10.8
CO[C@@H]1CN(C)C(=O)c2cc(NC(=O)NC3CCCCC3)ccc2OC[C@@H](C)N(C)C[C@H]1C	1.3	11.6	-4.0	-0.8
CC(C)C[C@H]1CNC(=S)N1C[C@H]1CCCN1C[C@H](Cc1ccc(O)cc1)N1C[C@H](CC(C)C)N(CC2CCCCCC2)C1=S	5.9	1.9	-7.2	0.2
C/C=C/c1cnc2c(c1)C(=O)N([C@H](C)CO)C[C@H](C)[C@@H](CN(C)S(=O)(=O)c1ccc(F)cc1)O2	-5.2	1.8	0.1	0.2
O=C(NCc1ccc(Br)cc1)OC1CC2CC1[C@H]1CCCCN1C2=O (some centres not stated)	-3.5	1.3	3.9	-14.4
C[C@@H]1CN([C@@H](C)CO)C(=O)c2cc(C#CC(C)(C)O)cnc2O[C@H]1CN(C)C(=O)C1CC1	6.7	1.3	0.0	-1.5
C[C@@H]1CN([C@@H](C)CO)C(=O)c2cc(-c3cncnc3)cnc2O[C@H]1CN(C)C(=O)Cc1ccccc1	3.7	3.8	-1.4	-1.1

An excerpt from above in order of the MLL AF4-AF9 inh value, lowest first:
SMILES	Ecoli rRNA inh	Ecoli rRNA inh OD600	Ecoli rRNA inh RFP	MLL AF4-AF9 inh
C[C@@H]1CN([C@H](C)CO)C(=O)CCCn2cc(nn2)CO[C@H]1CN(C)Cc1cccc(C(=O)O)c1	0.0	0.4	-0.8	-9.3
C[C@@H]1CN([C@@H](C)CO)C(=O)c2cc(C#CC(C)(C)O)cnc2O[C@H]1CN(C)C(=O)C1CC1	6.7	1.3	0.0	-1.5
CO[C@@H]1CN(C)C(=O)c2cc(NC(=O)NC3CCCCC3)ccc2OC[C@@H](C)N(C)C[C@H]1C	1.3	11.6	-4.0	-0.8
CC(=O)N(C)C[C@@H]1Oc2ncc(-c3ccc(C(=O)N(C)C)cc3)cc2C(=O)N([C@H](C)CO)C[C@@H]1C	1.9	7.3	-3.9	-0.3

Next structures:
SMILES	Ecoli rRNA inh	Ecoli rRNA inh OD600	Ecoli rRNA inh RFP	MLL AF4-AF9 inh
CN(C)C(=O)C[C@H]1C[C@H]2c3cc(NC(=O)NC4CCCCC4)ccc3O[C@H]2[C@@H](CO)O1	2.0	3.8	-3.3	-1.6
CC(N)c1csc(NC(=O)Nc2cccc(C(F)(F)F)c2)n1 (configuration not stated)	-15.5	-27.2	-4.4	7.3
O=C(CN1CCOCC1)NCC[C@H]1CC[C@H](NC(=O)Nc2ccc(C(F)(F)F)cc2)[C@H](CO)O1	0.0	-5.9	-1.0	1.1
CCCCn1nnnc1C(CCc1ccccc1)N1CCN(C/C=C/c2ccccc2)CC1 (configuration not stated)	-19.4	-63.2	3.1	6.3
CCc1nc2ccc(C(=O)NCc3ccc4c(c3)OCO4)cn2c1N(C)Cc1ccc(OC)cc1	5.6	-16.2	16.5	1.2
COc1ccc(NC(=O)Nc2ccc3c(c2)CC(=O)N([C@H](C)CO)C[C@H](C)[C@@H](CN(C)C(=O)Nc2ccc(OC)cc2)O3)cc1	-0.1	1.0	-0.5	3.2
C[C@@H]1CN([C@H](C)CO)S(=O)(=O)c2ccc(-c3cncnc3)cc2O[C@H]1CN(C)Cc1ccccn1	2.6	-3.9	-1.8	0.1
CO[C@H]1CN(C)C(=O)c2ccc(NS(=O)(=O)c3ccc(Cl)cc3)cc2OC[C@@H](C)N(C(=O)NC(C)C)C[C@H]1C	-4.9	-9.4	1.3	-1.1
C[C@@H]1CN([C@@H](C)CO)C(=O)Cc2cc(NC(=O)CCC(F)(F)F)ccc2O[C@H]1CN(C)Cc1ccncc1	2.7	0.0	-0.3	-0.8
COc1ccccc1CNC(=O)C[C@H]1C=C[C@H](NC(C)=O)[C@@H](CO)O1	1.1	3.7	-1.3	-1.7
O=C1c2ccccc2C(c2nnnn2Cc2ccccc2)N1Cc1ccc2c(c1)OCO2 (configuration not stated)	-27.4*	-15.9*	5.1*	-0.2
O=C(NC[C@H]1[C@@H](c2ccccc2)[C@H](CO)N1C(=O)Cc1ccncc1)C1CCC1	0.8	11.4	0.2	0.7
CO[C@@H]1CN(C)C(=O)c2ccc(NC(=O)C3CC3)cc2OC[C@@H](C)N(C(=O)c2ccccc2F)C[C@H]1C	-2.5	-3.6	1.7	-1.5
C[C@@H]1CN([C@H](C)CO)C(=O)c2cc(NC(=O)Nc3ccc(F)cc3)ccc2O[C@@H](C)CCCCO[C@@H]1CN(C)Cc1ccc(Cl)c(Cl)c1	2.5	-0.7	1.6	-0.9
COCCNC(=O)C[C@@H]1CC[C@H]2[C@@H](COc3ccc(NS(=O)(=O)c4ccc(Cl)cc4)cc3C(=O)N2C)O1	4.5	8.7	0.2	-2.5
O=C(C[C@@H]1C=C[C@@H](NC(=O)C2CCOCC2)[C@@H](CO)O1)NCC1CCCCC1	2.1	1.4	-0.1	-1.0
CO[C@H]1CC[C@@H]2CCOc3c(C#N)cccc3C(=O)N(C)C[C@H](c3ccccc3)CC(=O)N(C)C[C@H]1O2	-2.1	2.6	-1.4	-1.7
CN1C(=O)c2cc(NC(=O)c3cccs3)ccc2OC[C@@H]2O[C@@H](CC(=O)N3CCCCC3)CC[C@H]21	-0.6	-2.0	-1.0	0.6
C[C@H](CO)N1C[C@H](C)[C@@H](CN(C)S(=O)(=O)c2cn(C)cn2)OCCCC[C@H](C)Oc2ccc(NC(=O)NC3CCCCC3)cc2C1=O	-1.4	-2.5	-0.5	-2.2
COc1ccc(-c2cnc3c(c2)C(=O)N([C@H](C)CO)C[C@H](C)[C@H](CN(C)Cc2ccccn2)O3)cc1	1.9	10.2	0.5	-3.4
C[C@H]1CN([C@@H](C)CO)S(=O)(=O)c2ccc(Br)cc2O[C@@H]1CN(C)C(=O)CN(C)C	4.5	9.5	1.6	-2.1
C[C@H](CO)N1C[C@H](C)[C@H](CN(C)C)Oc2c(NC(=O)C3CCOCC3)cccc2C1=O	7.1	12.6	-0.3	-1.3
C[C@H](CO)N1C[C@H](C)[C@H](CN(C)S(=O)(=O)c2ccccc2)Oc2ccc(NC(=O)c3ccncc3)cc2C1=O	1.2	-5.1	-0.2	-0.1
C[C@@H]1CN([C@H](C)CO)S(=O)(=O)c2ccc(-c3ccc(F)cc3)cc2O[C@@H]1CN(C)C	2.3	1.7	-0.3	0.7
O=C(Nc1ccn(CCOC(=O)c2ccccc2)c(=O)n1)c1ccccc1	2.2	-5.7	0.3	-4.0
O=C(N[C@H]1CC[C@@H](CCNS(=O)(=O)c2ccc(F)cc2)O[C@@H]1CO)c1cccnc1	4.7	5.4	-0.4	-1.5
COc1ccccc1NC(=O)N[C@H]1CC[C@@H](CCNS(=O)(=O)c2ccc(Cl)cc2)O[C@H]1CO	-1.4	-2.7	1.5	2.1
CCCNC(=O)N(C)C[C@@H]1Oc2ncc(C#CC3(O)CCCC3)cc2C(=O)N([C@@H](C)CO)C[C@@H]1C	2.8	5.8	-0.7	-2.3
Cc1noc(C)c1NC(=O)N(C)C[C@@H]1OCCCC[C@H](C)Oc2ccc(NC(=O)Nc3ccc(C(F)(F)F)cc3)cc2C(=O)N([C@@H](C)CO)C[C@H]1C	2.7	2.0	0.2	3.7
C[C@@H]1CN([C@@H](C)CO)C(=O)c2cc(C#Cc3ccccc3F)cnc2O[C@@H]1CN(C)C(=O)c1ccc2c(c1)OCO2	-1.8	-36.9	9.3	6.0
Cc1noc(C)c1NC(=O)Nc1ccc2c(c1)C(=O)N([C@@H](C)CO)C[C@@H](C)[C@H](CN(C)S(=O)(=O)c1ccc(F)cc1)OCCCC[C@@H](C)O2	1.2	-0.6	3.2	-1.8

Not all compounds are listed; rates above refer to the full screens.
